Assay outcomes: PubChem, National Center for Advancing Translational Sciences (NCATS)
Rango dissoc inh – inhibitors of RanGTP-induced Rango-importin beta complex dissociation | O95149+P62826 | Biochemical FRET Rango-importin beta, RanGTP-induced dissociation | Potency, µM (doses to about 46.1 µM), inactives show top-dose activity change, negative = inhibition | 340,000 compounds, 0.071% hits; active means falling FRET ratio curve, often poorly fitted, with flat reads before Ran was added; inconclusive means other falling curves, or compound fluorescence or quenching; inactive means flat or rising ratio curve;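 note: potency is the fitted concentration of half-maximal effect; % of control where 0% means no effect; nearly all actives have a fitted effect of over 45% in size; -100% = wells without RanGTP and RCC1; the record marks most hits as doubtful in a second field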
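FRET read at 45 min, room temperature: inhibitors block the CFP/YFP signal rise when RanGTP (0.6 uM Ran, 2 mM GTP, 0.2 uM RCC1) frees Rango (0.1 uM) from importin beta (0.25 uM). Pre-read after 5 min compound exposure flags interference.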
miR-21 reporter – raises the signal of a miR-21 reporter. AID 2288. HeLa miR-21 FLuc reporter, luciferase, 48 h. Potency, µM (doses to about 38.3 µM), without a hit: at the highest dose reporter change, positive = more light. 340,000 tested, under 10 active; active = well fitted rising curve with a large enough effect; inconclusive = small, poorly fitted or top-dose-only effect; inactive = no such curve, though single readings can be large or run the other way;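 note: % of control where 0% means no effect; miR-21 action dims this reporter so a rising signal means less miR-21 action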
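Luminescence from a firefly luciferase reporter carrying a miR-21 binding site downstream, stably expressed under a CMV promoter in HeLa cells that make miR-21 endogenously, reports miRNA modulation after 48 h compound exposure up to approximately 40uM final.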
Rango-impB inh – Rango-importin beta binding inhibition; Q14974; Rango CFP/YFP FRET sensor + importin beta, 45 min; Potency, µM (titrated, usually from 92.2 µM), without a hit: at the top dose inhibition of complex formation; 340,000 compounds, 0.031% hits; active = rising FRET ratio curve, often small or poorly fitted; inconclusive = mostly compound fluorescence or quenching in the first reads; inactive = flat curves in all reads;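 note: potency is the fitted concentration of half-maximal effect; 0% = DMSO wells and 100% = buffer wells lacking importin beta; nearly all actives have a fitted effect of over 15% in size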
Target sequence (Q14974 whole entry, looked up): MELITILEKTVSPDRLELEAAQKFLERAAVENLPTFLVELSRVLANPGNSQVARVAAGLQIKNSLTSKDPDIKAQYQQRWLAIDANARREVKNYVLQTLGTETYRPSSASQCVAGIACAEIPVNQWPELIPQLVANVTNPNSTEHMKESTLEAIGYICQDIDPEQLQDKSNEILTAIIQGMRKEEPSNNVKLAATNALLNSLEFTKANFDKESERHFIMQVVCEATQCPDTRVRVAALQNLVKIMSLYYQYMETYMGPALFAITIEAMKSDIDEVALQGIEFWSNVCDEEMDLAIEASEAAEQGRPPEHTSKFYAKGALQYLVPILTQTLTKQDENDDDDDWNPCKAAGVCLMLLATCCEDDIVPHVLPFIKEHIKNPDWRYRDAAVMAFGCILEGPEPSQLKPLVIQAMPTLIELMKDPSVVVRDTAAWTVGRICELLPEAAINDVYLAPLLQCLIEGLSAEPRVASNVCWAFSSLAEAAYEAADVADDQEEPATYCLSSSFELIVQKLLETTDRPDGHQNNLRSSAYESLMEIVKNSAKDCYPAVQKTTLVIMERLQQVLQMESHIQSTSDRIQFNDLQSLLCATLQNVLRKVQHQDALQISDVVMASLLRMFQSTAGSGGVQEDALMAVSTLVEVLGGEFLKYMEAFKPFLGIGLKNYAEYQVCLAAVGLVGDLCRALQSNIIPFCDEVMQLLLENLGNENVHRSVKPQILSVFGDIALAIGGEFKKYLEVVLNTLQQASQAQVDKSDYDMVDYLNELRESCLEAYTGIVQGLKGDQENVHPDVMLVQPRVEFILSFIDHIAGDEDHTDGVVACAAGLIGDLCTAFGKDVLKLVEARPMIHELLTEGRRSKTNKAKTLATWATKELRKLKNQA
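FRET biosensor Rango (snurportin 1 IBB between N-terminal EYFP and C-terminal Cerulean), 50 nM in PBS/1 mM DTT/0.02% Tween-20/0.1% BSA, preincubated 5 min RT with compound; 0.125 microM importin beta added, 45 min RT, CFP/YFP FRET ratio read.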
GLA inh pH 4.5 – alpha-galactosidase A (human) inhibition, pH 4.5; purified enzyme, 4-MU-alpha-Gal fluorescence, pH 4.5; activity change, negative = inhibition, % at 105 µM; 230,000 tested, under 10 active; AID 1467; inconclusive = small, poorly fitted or top-dose-only inhibition, or a rising curve; inactive = flat fitted curve, though single readings scatter; no compound was filed as active;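 note: 0% = full activity with enzyme and -100% = basal without enzyme; dose as in the result columns while the protocol names 77 µM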
The depositor's hits bear a star; ? = inconclusive; nt = no result given; & = joins results of further samples.

SMILES | Rango dissoc inh | miR-21 reporter | Rango-impB inh | GLA inh pH 4.5
CCOC(=O)c1c(C)[nH]c(C)c1S(=O)(=O)N(C)CC(=O)N(C)Cc1ccccc1 | -3% | -8% | -3.2% | nt
Cc1ccc2[nH]c(=O)c(CN(C(=O)c3cccc([N+](=O)[O-])c3)C(C)(C)C)cc2c1 | -4% | 1% | -3.1% | 3
O=C(Nc1ccn(CCCNCC2CCCO2)c(=O)n1)OCc1ccccc1 (centres undefined) | -14% | nt | 0.4% | nt
COc1ccc(CCN2CC(C(=O)N3CCCCCC3)CCC2=O)cc1 (centres undefined) | -6% | 0% | 1.5% | nt
Cc1cc(Oc2ccc(=O)n(C)n2)nc(SCCOc2ccccc2)n1 | -5% | 2% | -2.4% | 0
COc1ccc(NC(=O)COc2cc(O)c3c(c2)OC(C)(C)CC3=O)cc1 | -8% | -5% | -1.0% | nt
COc1ccc(C(=O)OC(C(=O)c2ccc(C)cc2)c2ccccc2)cc1 (centres undefined) | 4% | 1% | 3.3% | -4
CCCNS(=O)(=O)c1ccc(CCC(=O)NCc2ccc3c(c2)OCO3)cc1 | -5% | -6% | -0.1% | -4
COc1cccc(NC(=O)COC(=O)CCC(=O)c2cccs2)c1 | -14% | nt | -2.2% | nt
C=CCOC(=O)C1=C(C)NC(SCC(=O)N(CC)CC)=C(C#N)C1c1ccccc1 (centres undefined) | -10% | 1% | -5.6% | 2
CCOc1ccc(Cn2c(O)cc(=O)[nH]c2=O)cc1 | -8% | -5% | 0.6% | -2
O=C(CCCCCn1c(=S)[nH]c2cc3c(cc2c1=O)OCO3)N1CCN(C2CCCCC2)CC1 | -9% | -1% | 2.3% | 1
Cc1cccc(NC2=NC3(CCCCC3)N=C(N)N2)c1 | -10% | nt | 0.4% | nt
Cc1c(Br)c([N+](=O)[O-])nn1CC(=O)Nc1nccs1 | 4% | -7% | -4.8% | -6
Cc1cc(N)ccc1NC(=O)c1ccccc1 | 7% | -3% | 9.6% | 3
CC(C)OC(=O)CSc1nc2ncc(Cl)cc2[nH]1 | 11% | -6% | -1.3% | 1
O=C(COc1ccc(S(=O)(=O)N2CCOCC2)cc1)NCc1ccco1 | 1% | -1% | -2.8% | nt
Cc1ccc(S(=O)(=O)NCCC(=O)NCCc2ccc(S(N)(=O)=O)cc2)cc1C | -12% | nt | -3.4% | nt
O=C(Nc1ccccc1)Nc1nccs1 | 12% | -12% | -5.8% | -9
COCCCNC(=O)CN1C(=O)c2ccccc2C1=O | 12% | 0% | -3.6% | 11
Nc1c(-c2ccsc2)cnc2ncnn12 | -2% | 2% | 4.2% | -2
C/C(=N\N=C(/C)c1cccc(N)c1)c1cccc(N)c1 | 0% | nt | ? | nt
CCOc1ccccc1NC(=O)NNC(=O)CCc1ccc(OC)cc1 | 23% | -4% | -2.4% | nt
CCOc1ccc(S(=O)(=O)N2CCCC(C(=O)N3CCC(C(N)=O)CC3)C2)cc1Cl (centres undefined) | -8% | -1% | -1.1% | nt
COc1ccccc1CC(=O)NC1CC1 | 16% | -3% | 5.5% | nt
CC(C)CN(C(=O)CSc1nnc(-c2cccs2)n1N)c1c(N)n(Cc2ccccc2)c(=O)[nH]c1=O | 1% | nt | -1.5% | nt
CCc1c(C)nc2ncnn2c1N1CCCC(C(=O)NCc2ccc3c(c2)OCO3)C1 (centres undefined) | 23% | -14% | 6.4% | 9
CCOC(=O)c1ccc(C(=S)N2CCCC2)cc1 | -15% | -5% | 1.8% | nt
CCOC(=O)c1sc(/N=C/c2c(C)[nH]n(-c3ccccc3)c2=O)c(C#N)c1C | nt | -1% | nt | 1
Cc1ccc(NC(=O)Cc2ccc(Cl)cc2)cc1S(=O)(=O)N1CCCCCC1 | -13% | nt | 1.3% | nt
CC(=O)Nc1ccccc1OCC(=O)NCC(F)(F)F | -5% | 2% | -1.0% | 0
OCC[C@H]1C[C@@H](O)[C@H](O)[C@@]2(Cc3ccccc3CCO2)O1 | -3% | nt | -0.6% | nt
CCn1c(NC(=O)C(C)C)c(-c2ccccc2)c(=O)c2ccccc21 | 28% | 1% | -2.4% | -1
C[C@@H](N)C(=O)N[C@H]1CCC2C3CC=C4C[C@@H](O)CC[C@]4(C)C3CC[C@@]21C (some centres undefined) | -2% | nt | 0.2% | nt
Cc1cccc(OCC(=O)N2CCN(C(=O)c3cccs3)CC2)c1 | -4% | -17% | -0.2% | -4
CC(C)CN(CC(C)C)C(=O)c1cccc(S(=O)(=O)N2CCc3ccccc32)c1 | -4% | 27% | -1.2% | -20
O=C1CC(C(=O)Nc2ccc(Cl)cc2)S/C(=N\N=C\c2ccco2)N1 (centres undefined) | 12% | -2% | -3.0% | -9
COc1ccc(CC2(CO)CCN(S(=O)(=O)c3c(C)nn(C)c3C)CC2)cc1 | -12% | 1% | 1.8% | 2
C(#Cc1ccc(C#CCN2CCOCC2)cc1)CN1CCOCC1 | -4% | -3% | -4.8% | -5
Cc1nnsc1C(=O)NC1CCCc2c1cnn2-c1ccccc1F (centres undefined) | 20% | 20% | 0.8% | nt
CCN1C(=O)[C@@H]2C(C(=O)c3cnccn3)=NN[C@@H]2C1=O | -7% | 2% | -1.5% | -1
Cc1ccc(S(=O)(=O)N(c2ccccc2)C2CCS(=O)(=O)C2)cc1 (centres undefined) | 30% | 0% | -0.9% | -4
CCCCNC(=S)NNC(=O)c1cccnc1 | 1% | -7% | 7.3% | -1
Cn1cnc([N+](=O)[O-])c1Oc1ccccc1 | -13% | 2% | 0.8% | 1
O=C1C(Cl)=C(NCc2cccnc2)C(=O)c2ccccc21 | -3% | ? | 1.1% | nt
COCCNC(=O)c1cnn2c(C(F)(F)F)cc(-c3ccc(C)cc3)nc12 | 12% | 4% | 0.2% | 11
CCOC(=O)CCCNS(=O)(=O)c1c(C)ccc2nsnc12 | 15% | -3% | 4.1% | 3
CC(C)C(=O)Nc1ccc(C(=O)NN2C(=O)c3ccccc3C2=O)cc1 | ? | -8% | 1.0% | 0

Quoted from the listing:
In Rango-impB inh, C(#Cc1ccc(C#CCN2CCOCC2)cc1)CN1CCOCC1 is entered as -4.8%
In Rango-impB inh, CC(C)C(=O)Nc1ccc(C(=O)NN2C(=O)c3ccccc3C2=O)cc1 is entered as 1.0%

Continuation:
SMILES | Rango dissoc inh | miR-21 reporter | Rango-impB inh | GLA inh pH 4.5
CCCCc1nc2sc3c(=O)[nH]c(=S)[nH]c3c2c2c1CCC2 | 0% | nt | -3.1% | nt
COc1ccccc1C(=O)N/N=C/c1c[nH]c2ccccc12 | 8% | -17% | -1.6% | nt
CCOc1cc(/C=N/O)ccc1OCc1ccc(C)cc1 | 12% | -28% | 0.5% | 1
O=C(N/N=C/c1ccccn1)c1cc(-c2ccc(Cl)cc2)nc2ccccc12 | -11% | 11% | -0.5% | -3
COc1cccc(OCC(=O)N(Cc2nc(-c3ccc(Cl)cc3)no2)C(C)C)c1 | 3% | 0% | -0.7% | -9
COc1ccc(S(=O)(=O)N(CC(=O)N2CCCC2)Cc2ccccc2)cc1 | -6% | -1% | 0.5% | 0
O=C(OCc1nnc(-c2ccccc2Br)o1)c1ccco1 | -20% | nt | 7.1% | nt
COc1ccc(CC(=O)Nc2nc(-c3cccc([N+](=O)[O-])c3)cs2)cc1 | -14% | -8% | 0.7% | 2
O=S(=O)(NCc1ccco1)c1cccc(S(=O)(=O)N2CCOCC2)c1 | -4% | 2% | -3.7% | 9
COc1ccccc1C(CNC(=O)c1ccc(NS(=O)(=O)c2ccc(F)c(C)c2)cc1)N1CCCC1 (centres undefined) | -4% | nt | -1.4% | nt
CCOC(=O)C1=C(c2ccccc2)NC(N)=NC1c1ccc(OCc2ccc(Cl)cc2)c(OC)c1 (centres undefined) | 5% | 0% | 0.1% | -14
COc1ccc(OC)c(/C=C/c2c([N+](=O)[O-])c(=O)n(C)c(=O)n2C)c1 | 2% | 22% | 6.2% | 1
COc1cc2cc(C(c3nnnn3C3CCCC3)N3CCc4ccccc43)c(=O)[nH]c2cc1OC (centres undefined) | -10% | -8% | ? | 6
CCC(C)N(CC(=O)NCc1ccc(OC)cc1)C(=O)c1csnn1 (centres undefined) | -7% | -3% | 0.0% | ?
Cc1cc(C(=O)COC(=O)C(C)NC(N)=O)c(C)n1Cc1ccco1 (centres undefined) | 3% | -35% | 0.7% | 2
CCC(Sc1nc2c(c(=O)n1CC)SC(C)C2)C(=O)OC (centres undefined) | 0% | -7% | 0.9% | 10
COC(=O)N/N=C/c1cc(C)n(-c2ccc(Br)cc2)c1C | 4% | -4% | 6.5% | -18
Cc1ccc(NC(=S)N2CCC(c3nc4ccccc4s3)CC2)cc1C | 27% | -5% | -0.3% | 0
N#Cc1ccc2ccn(CC(=O)NC3CCCCCC3)c2c1 | 8% | -8% | 3.5% | -8
Nc1ccc(C(=O)OCc2ccncc2)cc1[N+](=O)[O-] | -6% | -24% | 0.0% | 2
O=C(Cn1cc([N+](=O)[O-])cn1)NCCc1c[nH]c2ccccc12 | -22% | 3% | 7.6% | -2
CC(C)(C)NC(=O)NC(=O)COC(=O)c1ccco1 | 5% | 1% | -0.5% | 1
O=C(CCc1nnc2n(Cc3ccc(F)cc3)c(=O)c3ccccc3n12)N1CCN(c2ccccn2)CC1 | 0% | 2% | 0.8% | nt
Cc1cccc(CN2C(=O)N/C(=C/c3cc(C)n(-c4ccccn4)c3C)C2=O)c1 | 5.2µM* | 0% | ? | -4

Shown with two lines to a compound: part of the list above.
Each structure is followed by: Rango dissoc inh	miR-21 reporter	Rango-impB inh	GLA inh pH 4.5
> CCOC(=O)c1c(C)[nH]c(C)c1S(=O)(=O)N(C)CC(=O)N(C)Cc1ccccc1
 : -3%	-8%	-3.2%	nt
> Cc1ccc2[nH]c(=O)c(CN(C(=O)c3cccc([N+](=O)[O-])c3)C(C)(C)C)cc2c1
 : -4%	1%	-3.1%	3
> O=C(Nc1ccn(CCCNCC2CCCO2)c(=O)n1)OCc1ccccc1 (centres undefined)
 : -14%	nt	0.4%	nt
> COc1ccc(CCN2CC(C(=O)N3CCCCCC3)CCC2=O)cc1 (centres undefined)
 : -6%	0%	1.5%	nt
> Cc1cc(Oc2ccc(=O)n(C)n2)nc(SCCOc2ccccc2)n1
 : -5%	2%	-2.4%	0
> COc1ccc(NC(=O)COc2cc(O)c3c(c2)OC(C)(C)CC3=O)cc1
 : -8%	-5%	-1.0%	nt

(listing goes on)
SMILES | Rango dissoc inh | miR-21 reporter | Rango-impB inh | GLA inh pH 4.5
CCOc1nsc(OCC)n1 | 17% | 0% | 2.8% | 3
COc1ccc(/C=C/C(=O)OCC(=O)NC2CCCC2)cc1OC | 6% | nt | 0.2% | nt
CCOC(=O)c1ccc(NC(=S)N2CCCC(C(=O)N3CCCC3)C2)cc1 (centres undefined) | 7% | -2% | 2.1% | nt
COC(=O)C1=C(C)NC(C)=C(C(=O)OC)C1C(=O)OCc1nnc(-c2ccccc2Cl)o1 | -13% | nt | -2.2% | nt
COC(=O)c1cccc(C23CC4(C2)[C@H](CN(Cc2ccc(-c5ccccc5)cc2)[C@@H]4c2ccccc2)C3c2ccc(Cl)nc2)c1 (some centres undefined) | -5% | -2% | -2.9% | 0&-3
O=C(CSc1ccc2nnc(-c3ccncc3)n2n1)Nc1ccc2c(c1)OCO2 | 9% | -1% | 1.9% | -7
Cc1cc(C)c2c(c1)-c1cc(C)nn1C(c1ccc3c(c1)OCO3)N2 (centres undefined) | 2% | -6% | -3.0% | 0
CC(C)=CCN1CCN(Cc2cccnc2)CC1CCO (centres undefined) | -1% | -2% | 1.1% | 3
COc1ccc2c(c1)NC(=O)CC(c1ccccc1)=N2 | 2% | -15% | -6.0% | -1
CCOc1cc(CC(=O)N[C@@H](CC(C)C)c2ccccc2N2CCCCC2)ccc1C(=O)O | -6% | 2% | -0.1% | -1&-3
Cc1cc(C)n2nc(C(=O)NC3CCCc4ccccc43)nc2n1 (centres undefined) | ? | -1% | 4.7% | 12
O=C(COc1ccccc1Cl)Nc1ccc(CN2CCOCC2)cc1 | -7% | -8% | -0.7% | nt
CC(C)c1ccc(C(=O)NC(=S)NCc2cccnc2)cc1 | 11% | -2% | -0.1% | 3
CCOC(=O)c1cnc(SCC(=O)N2CCOCC2)nc1N | -13% | 4% | -2.1% | -4

Not all compounds are listed, so the mix of outcomes need not match the whole.
